# Sfp PPTase inh – qHTS Assay for Inhibitors of Bacillus subtilis Sfp phosphopantetheinyl transferase (PPTase); AID 1490, 2009; 310,000 compounds, 3.5% hits; Potency, µM, for the others: max response, negative = inhibition, most hits filed as inhibitors; Biochemical Sfp PPTase activity, qHTS; active = well fitted inhibition curve with a large enough effect; inconclusive = small, poorly fitted or top-dose-only effect, or another doubt; inactive = no such curve, though single readings can be large or run the other way;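 note: the enzyme is Sfp with the accession as filed and its product quenches rhodamine fluorescence; potency is the fitted concentration of half-maximal effect; 0% = enzyme reaction without inhibitor and -100% = no enzyme wells; top concentration of the series not given in the record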
#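 Compounds were incubated with enzyme (final 15 nM) for 15 min at room temperature before substrate addition started the reaction. Fluorescence at 525 nm excitation, 598 nm emission was recorded immediately and after 30 minutes.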
# TRPML1 agonist – qHTS for Agonists of the Human Mucolipin Transient Receptor Potential 1 (TRPML1); AID 624414, 2012; 410,000 compounds, 0.12% hits; Mucolipin-1 (Homo sapiens), Q9GZU1; TRPML1-expressing cells, Ca2+ dye fluorescence, FDSS; host cell line not named in the record; reference of the full effect not given here; activation, % (test concentration not listed); in the data active = activation above about 50%; inconclusive = about 30% to 50%; inactive = below about 30%; note: 0% is about no effect; the text of the record puts the active cut at 80%
#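 TRPML1-DL cells, Tet-induced overnight (~16 h, 37 degrees C), loaded 45-90 min at room temperature with Ca8 no-wash calcium dye plus quencher. FDSS fluorescence: 10 s baseline, compound pin-transfer, 110 s agonist read, then EC80 54-4 (4uM final) and 110 s antagonist read.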
# PINK1 expr mod – A Quantitative High throughput Screen to Identify Chemical Modulators of PINK1 Expression; PINK1 immunofluorescence, high-content cytometry, 24 h; Potency, µM (doses to about 76.6 µM), for inactives: at the top dose activation (PINK1 increase), most hits filed as activators; 410,000 compounds, 0.2% hits; AID 624263, 2012; active = well fitted activation curve with a large enough effect; inconclusive = small, poorly fitted or top-dose-only effect; inactive = flat fitted curve, though single readings scatter; cell line not stated here;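 note: potency is the fitted concentration of half-maximal effect; % of control where 0% means no effect; nearly all actives have a fitted effect of over 65% in size; a mitochondrial uncoupler was the plate control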
#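 PINK1 protein level read as immunofluorescence by microplate cytometer in a fixed, stained stable cell line after 24 h exposure to five compound concentrations, with CCCP as control.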
# Menin-MLL FL inh – qHTS Assay for Inhibitors Targeting the Menin-MLL Interaction in MLL Related Leukemias: Competition With Fluorescein Labeled MLL-derived Peptide | FP activity change, % at 61.4 µM | Fluorescence polarization, fluorescein-MLL peptide displacement from menin | 290,000 tested, under 10 active; inconclusive = falling polarisation curve, or a change in total fluorescence; inactive = total fluorescence flat and polarisation flat or rising; no compound was filed as active; the % refers to the polarisation; negative = inhibition;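 note: % of control where 0% means no effect; inhibitors lower the polarisation; unlabelled MLL peptide was the positive control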
# TRPML1 inh – qHTS for Inhibitors of the Human Mucolipin Transient Receptor Potential 1 (TRPML1); Mucolipin-1 (Homo sapiens), Q9GZU1; TRPML1-inducible cells, Ca2+ dye fluorescence, FDSS; hits give low values; inhibition of EC80 agonist-evoked calcium signal; activity change, negative = inhibition, % (no concentration beside the values); 390,000 compounds, 0.02% hits; AID 624415, 2012; in the data active means activity change below about -50%; inconclusive means about -30% to -50%; inactive means above about -30%;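 note: stimulus is agonist 54-4 at its EC80 concentration; % is set by controls: 0 for no effect and ±100 for the full control effect; compound concentration not given in the record; the text of the record puts the active cut at -80%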
#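 Calcium fluorescence in TRPML1-DL cells induced overnight with Tet: a 110 s read after compound pin addition, then a 110 s antagonist read after challenge with 54-4 at 4 uM final (EC80).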
# ClpP mod – qHTS Assay for Activators of ClpP; purified B. subtilis ClpP, FRET peptide cleavage, 20 min; Potency, µM (doses to about 57.5 µM), inactives show top-dose activity change, negative = active; 340,000 compounds, 1.9% hits; ATP-dependent Clp protease proteolytic subunit (Bacillus subtilis (strain 168)), P80244; active = well fitted falling curve with a large enough effect; inconclusive = small, poorly fitted or top-dose-only effect; inactive = no such curve, though single readings can be large or run the other way; note: potency is the fitted concentration of half-maximal effect; the source files actives as falling curves though it sought activators and does not explain the sign; nearly all actives have a fitted effect of over 65% in size; many hits overshoot -100%
# Target sequence (P80244 whole entry, looked up): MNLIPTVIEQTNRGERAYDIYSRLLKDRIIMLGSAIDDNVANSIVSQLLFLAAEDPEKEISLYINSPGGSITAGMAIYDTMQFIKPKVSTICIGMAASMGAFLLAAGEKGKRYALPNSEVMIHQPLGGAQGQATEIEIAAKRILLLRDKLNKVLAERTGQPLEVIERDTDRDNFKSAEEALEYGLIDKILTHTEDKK
#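 Purified B. subtilis ClpP, 10 microg/mL final in Tris/HCl pH8 with KCl, BSA, glycerol and Tween-20, cleaved an Abz/nitrotyrosine-quenched decapeptide. Fluorescence (ex 320, em 430) was read at 0 and 20 min at room temperature. Delta was normalized to 5.8 microM ADEP and DMSO/no-enzyme controls.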
# TRPV1 potentiator – HTS Assay for Compounds that Act as Potentiators of the Vanilloid Receptor 1; Transient receptor potential cation channel subfamily V member 1 (Homo sapiens), Q8NER1; TRPV1-expressing cells, Fluo-8 calcium influx, capsaicin EC20 potentiation; host cell line not named in the record; control for the full effect not named in the record; potentiation, % at 8.33 µM; 320,000 compounds, 0.02% hits; AID 540277, 2011; active means potentiation above 80%; inconclusive means 30% to 80%; inactive means below 30%; note: 0% is about no effect
# Target sequence (Q8NER1 whole entry, looked up): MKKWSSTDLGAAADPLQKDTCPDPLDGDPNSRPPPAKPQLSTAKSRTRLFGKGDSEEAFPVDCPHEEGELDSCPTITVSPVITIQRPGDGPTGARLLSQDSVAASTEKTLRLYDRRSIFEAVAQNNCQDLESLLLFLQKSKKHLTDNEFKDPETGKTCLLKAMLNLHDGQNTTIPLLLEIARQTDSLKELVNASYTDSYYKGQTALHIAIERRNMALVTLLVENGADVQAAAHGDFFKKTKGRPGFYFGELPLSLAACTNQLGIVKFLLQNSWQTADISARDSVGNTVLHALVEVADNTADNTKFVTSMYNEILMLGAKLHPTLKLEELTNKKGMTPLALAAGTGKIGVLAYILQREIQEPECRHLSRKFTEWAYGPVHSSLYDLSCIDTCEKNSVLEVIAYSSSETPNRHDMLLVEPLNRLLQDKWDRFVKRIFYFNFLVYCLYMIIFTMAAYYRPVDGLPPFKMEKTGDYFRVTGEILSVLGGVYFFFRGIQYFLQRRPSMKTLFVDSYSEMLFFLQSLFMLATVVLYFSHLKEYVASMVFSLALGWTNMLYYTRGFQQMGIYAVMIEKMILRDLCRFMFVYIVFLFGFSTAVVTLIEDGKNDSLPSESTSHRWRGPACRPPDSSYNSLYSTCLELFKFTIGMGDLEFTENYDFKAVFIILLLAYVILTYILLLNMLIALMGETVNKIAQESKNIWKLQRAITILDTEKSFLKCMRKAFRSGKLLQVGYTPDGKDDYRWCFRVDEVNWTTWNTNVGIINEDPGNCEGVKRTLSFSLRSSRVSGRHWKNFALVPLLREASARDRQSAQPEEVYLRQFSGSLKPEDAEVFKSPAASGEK
#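 Fluo-8 calcium influx in TRPV1-expressing cells, kinetic read (ex 480/em 520 nm). Compound added and read 3 min for agonist activity, followed by capsaicin at EC20 final and 2 min further read for enhancement.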
# * = called active by the depositor; ? = inconclusive; . = not tested or not shown; [ ] = dose if it differs, or a comment.
mol	Sfp PPTase inh	TRPML1 agonist	PINK1 expr mod	Menin-MLL FL inh	TRPML1 inh	ClpP mod	TRPV1 potentiator
CCOC(=O)CCc1c(C)nc2c(c(C)nn2-c2ccccc2)c1C	-10%	0.3	0.1%	3.0	22	3.8%	-11
Cc1ccc(-c2nnn(CCC(=O)N3CCCCC3C)n2)cc1 (configuration not stated)	10%	0.2	-0.3%[38.3 µM]	1.7	1	-2.7%	-6
CCOC(=O)c1c(S(=O)(=O)Nc2ccc(C)cn2)c(C)n(C)c1C	5%	0.8	0.9%	.	-7	-1.5%	2
O=c1c2sc3nc(N4CCOCC4)c4c(c3c2ncn1-c1ccccc1)CCCC4	?	-0.5	0.3%	5.2	-1	?	29
COc1ccc(C(=O)NCc2nnc(SCC(=O)Nc3ccccc3OC)n2C)cc1	22%	-0.8	-0.1%	-0.3	1	.	-2
Nc1nccnc1C(=O)OCC(=O)Nc1cccc(S(=O)(=O)N2CCCCC2)c1	2%	0.4	-1.6%	5.9	-4	-4.5%	2
O=C(O)c1cn(Cc2ccccc2)c2ccc(Cl)cc2c1=O	.	-0.6	0.4%	.	36	-2.0%	0
CC(=O)N/N=C/c1cc(C(C)C)cc(/C=N/NC(C)=O)c1O	3%	10	6.8%	1.7	10	.	8
CCCC(=O)C1=C(O)C(C(=O)OC)C(C)(C)CC1=NC(C)C (configuration not stated)	15%	-0.2	1.0%	1.8	6	-2.4%	12
C=CCN(CC=C)C(=O)c1ccc(OC2CCN(Cc3ccccn3)CC2)cc1	6%	1.4	0.6%	-1.7	11	.	12
Nc1ccc(C(=O)OCC(=O)NC(=O)c2ccccc2)cc1[N+](=O)[O-]	.	1.9	-0.1%	.	2	1.8%	-1
CCCCn1c(N)c(N(CC(C)C)C(=O)CSc2nnc(-c3ccc(Cl)cc3)o2)c(=O)[nH]c1=O	.	-0.6	0.7%	.	-1	.	-4
COc1ccc(Cl)cc1-c1cc(C(=O)NCc2cccc(C(F)(F)F)c2)[nH]n1	.	-0.2	0.3%	.	.	-5.0%	.
O=S1(=O)c2ccccc2N(Cc2ccc(F)cc2)c2ccccc21	.	2.7	1.6%	.	7	?	.
Cc1ccc(C(=O)Nc2nnc(C)s2)o1	22%	0.3	-5.6%[38.3 µM]	0.9	-8	0.9%	-1
Cc1ccc(C2C(C(=O)c3cccs3)=C(O)C(=O)N2CCN2CCOCC2)o1 (configuration not stated)	?	-0.3	0.1%	-3.1	-4	-0.2%	.
Cn1c(SCc2cccc([N+](=O)[O-])c2)nc2ccccc2c1=O	.	3.2	0.4%	.	7	-2.2%	11
Cc1cnc(CN(C)Cc2c(C(=O)N3CCCCCCC3)nc3ccc(Cl)cn23)[nH]1	11%	1.3	-1.5%	4.1	21	-5.1%	3
COc1cccc2sc(NC(=O)c3ccc(S(=O)(=O)N4CCOCC4)cc3)nc12	4%	0.3	4.0%[38.3 µM]	2.3	-5	-0.4%	0
O=S1(=O)c2ccc(Br)cc2N2CCC[C@@H]2CN1Cc1ccc(Cl)cc1	.	-1.1	-1.2%	.	25	0.0%	.
COc1ccc(S(=O)(=O)N(CC(=O)O)Cc2ccccc2)cc1OC	14%	0.3	-1.1%[38.3 µM]	3.9	-11	-3.2%	-5
Cc1cccc(C)c1NC(=O)c1sccc1SCc1cccc(C(F)(F)F)c1	12%	-0.4	-3.1%[38.3 µM]	-0.4	-7	-3.8%	-6
CN(C(=O)COC(=O)Cn1c(C(F)(F)F)nc2ccccc21)c1c(N)n(Cc2ccccc2)c(=O)[nH]c1=O	-3%	0.7	0.1%	.	-6	-1.1%	15
COc1cc(CNc2ccc(N3CCCC3)cc2)ccc1OCc1ccccc1F	-16%	-0.3	0.2%	-3.2	-14	-0.1%	12
Nc1ccc2c(c1)COc1ccccc1O2	13%	0.8	8.5%[38.3 µM]	-3.2	-16	1.0%	-14
CC1CCN(CCOc2ccc(Cl)c(Cl)c2)CC1	8%	0.9	4.9%	7.8	-19	-0.3%	-1
CC(C)(C)c1ccc(C(=O)/C(C#N)=C/c2cccs2)cc1	11%	1.1	-0.7%	?	-17	.	-14
CCN(CC)S(=O)(=O)c1ccc(-c2nnc(SCC(=O)N3CCOCC3)o2)cc1	11%	0.4	4.9%[38.3 µM]	0.0	10	-0.8%	10
CC(C)(C)SC(=O)CC1NS(=O)(=O)OC2CCCCC12 (configuration not stated)	24%	-0.5	3.3%	-0.1	2	-0.6%	-3
CCc1nc(SCc2cc(Cl)ccc2OC)n[nH]1	10%	0.7	3.2%[38.3 µM]	-1.0	-8	-3.1%	-5
Cc1ccc(NC(=O)CS(=O)CC(=O)N2CCN(c3ccccc3)CC2)cc1 (configuration not stated)	-9%	-1.4	1.9%	0.6	2	-0.6%	-1
CCN1CCN(S(=O)(=O)c2ccc(Cl)c(C(=O)Nc3ccccc3N3CCCCC3)c2)CC1	.	100*	6.6%	.	-16	.	-8
N#CCC(=O)Nc1ncn(Cc2ccccc2Cl)n1	13%	-0.4	3.0%	4.2	-9	8.1%	21
NC(=O)CC(CC(=O)OCc1ccccc1)c1ccccc1 (configuration not stated)	12%	-0.6	1.2%	-1.9	-3	.	-4
COc1ccc(C(=O)NCCc2c[nH]c3ccc(OC)cc23)cc1	6%	-1.7	-0.7%	3.4	-7	-0.3%	-23
COc1ccc(-c2cc3ccccc3n2CC(O)Cn2nc(C)cc2C)cc1 (configuration not stated)	-6%	-0.3	2.0%	-0.5	15	22µM*	-6
O=C(N/N=C/c1ccco1)c1ccc2nc[nH]c2c1	?	1.4	-1.4%	-0.8	14	.	12
COc1cccc(C2C(C#N)=C(C)NC3=C2C(=O)CC(C)(C)C3)c1 (configuration not stated)	0%	-0.3	2.2%	-0.1	-11	25µM*	-2
O=C(/C=C\NCC(=O)c1ccccc1)c1ccc2ccccc2c1	-13%	0.5	1.4%	14	-11	-2.3%	7
COc1cccc(NC(=O)CSc2cc(C)[nH]c(=O)n2)c1	.	-0.7	0.2%	.	27	0.0%	.
O=C(NCC1CCCO1)/C(=C\c1ccccc1F)NC(=O)c1ccccc1 (configuration not stated)	11%	-0.4	-0.1%	-4.7	-15	.	24
CC(C)Sc1oc(-c2cccs2)nc1S(=O)(=O)c1ccc(Cl)cc1	.	-0.3	0.4%	.	-9	?	.
CCCC(=O)Nc1ccc(NC(=O)c2cccs2)cn1	13%	0.7	1.2%	2.7	-6	-2.2%	-21
O=C(NNC(=O)c1cc(Cl)nc2ccccc12)c1ccccc1F	.	-0.7	1.3%	.	-4	.	-4
O=c1c2ccccc2[nH]c(=S)n1CCCN1CCOCC1	-9%	-0.7	-0.2%	-1.1	-1	-0.5%	?
Cc1cc(C)cc(NC(=O)CSc2nccn2Cc2ccco2)c1	-6%	1.2	0.8%	.	2	1.3%	?
Cc1ccccc1NS(=O)(=O)c1ccc2c3c(cccc13)C(=O)N2C	7%	1.1	1.6%	4.4	-2	-0.6%	27
CCOc1ccccc1NS(=O)(=O)c1ccc2c(c1)NC(=O)CCS2	6%	0.3	0.2%	.	?	-0.6%	-7
CC(C)c1ccc(/C=N/NC(=O)c2ccccn2)cc1	?	0.6	1.5%	2.0	20	.	-26
CCOc1ccc(CCNC(=O)C2CCCN2C(=O)OCc2ccccc2)cc1OCC (configuration not stated)	21%	0.5	-0.1%	-0.2	-17	-2.2%	1

# Entries of single compounds, looked up by structure:
# CC(C)c1ccc(/C=N/NC(=O)c2ccccn2)cc1 across the screens: Sfp PPTase inh = ?; TRPML1 agonist = 0.6; PINK1 expr mod = 1.5%; Menin-MLL FL inh = 2.0; TRPML1 inh = 20; ClpP mod = .; TRPV1 potentiator = -26
# CCOc1ccccc1NS(=O)(=O)c1ccc2c(c1)NC(=O)CCS2 across the screens: Sfp PPTase inh = 6%; TRPML1 agonist = 0.3; PINK1 expr mod = 0.2%; Menin-MLL FL inh = .; TRPML1 inh = ?; ClpP mod = -0.6%; TRPV1 potentiator = -7

# More entries
mol	Sfp PPTase inh	TRPML1 agonist	PINK1 expr mod	Menin-MLL FL inh	TRPML1 inh	ClpP mod	TRPV1 potentiator
O=C(COc1ccc(Cl)cc1Cl)N1CCN(c2ccccn2)CC1	10%	-0.4	2.5%	-7.1	24	.	-1
C=C(C)Cn1c(N2CCN(CC)CC2)nc2c1c(=O)[nH]c(=O)n2C	0%	0.0	0.1%	-1.5	-6	-5.1%	-3
CC1CCC(N2CCN(S(=O)(=O)Cc3ccccc3)CC2)CC1 (configuration not stated)	-7%	0.8	1.0%	0.4	-1	.	20
COc1ccc(CNn2c(-c3cccs3)nc3ccccc3c2=O)cc1OC	5%	2.6	-1.2%	-3.0	8	.	-5
COc1ccc(C(=O)CSc2nc(C(C)(C)C)nc3ccccc23)cc1	-18%	3.4	4.2%	2.0	29	-1.6%	7
C[C@H](O)[C@@H]1C(=O)N2CCc3ccc(-c4cccc(F)c4)cc3[C@@H]2C[C@@H]1N(C)C(=O)C(C)(C)C	.	0.4	0.0%	.	-3	-1.4%	.
O=C1CCCC/C1=C\Nc1ccc(C(=O)O)c(O)c1	9%	0.5	0.9%	?	3	-9.0%	-2
OCC[C@@H]1C[C@H](O)[C@@H](O)[C@]2(CCc3ccccc3CO2)O1	3%	-0.5	0.2%	0.5	-2	0.6%	23
Cc1nnc(SCc2nc3ccccc3[nH]2)s1	25%	0.1	0.4%	-4.0	39	0.7%	-10
CC(=O)N1CCc2cc(Br)cc(S(=O)(=O)N3CCN(C(=O)c4ccco4)CC3)c21	1%	0.4	-0.2%	-2.2	11	0.9%	17
CCC1CCCCN1C(=O)CSc1n[nH]c(N)n1 (configuration not stated)	.	-0.8	3.0%	.	-9	.	.
O=c1cc(-c2ccc(O)cc2)oc2ccccc12	6%	0.2	-0.3%	1.7	7	-15%	15
